Screens: PubChem, Broad Institute
DUX4 inh – blocks DUX4-driven transcriptional activation. 0.8% of 37,000 active. 293T-iDUX4 ZSCAN4-Gaussia luciferase reporter, 24 h; hits give low values. AID 1224904. activity change, negative = inhibition, % (test concentration not listed);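 active = -10% or lower and over 25 points stronger than a control reporter; inconclusive = -10% or lower with a smaller gap; inactive = above -10%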;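 note: 0% = median of neutral control wells and -100% = median of positive control wells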
DUX4 inh difference – further read-out of DUX4 inh, marked with its call; Gaussia minus Italica difference, %; measured here: selective DUX4 reporter inhibition;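 worked out from the two reporters; negative = selective loss of the DUX4 reporter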
DUX4 inh control – further read-out of DUX4 inh, marked with its call; activity change, negative = inhibition, %; measured here: Italica tet-on control reporter;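 0 = neutral control and -100 = positive control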
The depositor's hits bear a star; ? = inconclusive; / = no result given. Only part of the results is shown; count on the stated rates, not on these rows.

SMILES	DUX4 inh	DUX4 inh difference	DUX4 inh control
C[C@@H]1CN([C@@H](C)CO)S(=O)(=O)c2ccc(C3=CCCC3)cc2O[C@H]1CN(C)Cc1cccc(C(=O)O)c1	4	2	2.5
CN(C)C(=O)c1ccc(-c2ccc3c(c2)[C@@H]2[C@@H](CCN2C(=O)c2ccc4c(c2)OCO4)[C@@H](CO)N3)cc1	?	/	/
COc1cccc(CNC(=O)c2cc3c(c(-c4cccc(-c5cccc(C#N)c5)c4)n2)[C@@H](CCO)N([S@](=O)C(C)(C)C)C3)c1	4	3	1.1
CO[C@@H](CN(C)C(=O)c1ccccc1F)[C@H](C)CN([C@@H](C)CO)S(=O)(=O)c1ccc(Cl)cc1	1	0	0.9
CCN(C[C@@H]1N[C@H](CO)[C@@H]1c1ccccc1)C(=O)c1ccccc1	-3	-4	1.2
O=C(C1CCCCC1)N1CC2(C1)[C@H](c1ccccc1)[C@@H](CO)N2Cc1ccc(Cl)cc1	-51*	-29*	-21*
O=C(Nc1nccs1)[C@H]1[C@H](CO)[C@H]2Cn3c(cccc3=O)[C@@H]1N2C(=O)C1CCCCC1	6	6	0.1
COc1ccccc1NC(=O)N1CC[C@@H]2[C@H]1c1cc(-c3cccc(F)c3)ccc1N(C)[C@H]2CO	-3	8	-11
CC(C)NC(=O)N1[C@H](CO)[C@@H](c2ccccc2)C12CN(Cc1ccc(Cl)cc1)C2	?	/	/
O=C(C[C@H]1CC[C@@H]2[C@H](COC[C@@H](O)CN2C(=O)Nc2ccc(Cl)cc2)O1)NCCc1ccncc1	5	6	-1.1
C[C@@H]1CN([C@@H](C)CO)C(=O)c2cc(NC(=O)NC3CCCCC3)ccc2O[C@@H]1CN(C)Cc1ccc(C(=O)Nc2ccccc2N)cc1	-5	-3	-1.7
C[C@@H]1CN([C@H](C)CO)C(=O)CCCn2nncc2CO[C@H]1CN(C)Cc1ccc(C(=O)O)cc1	-4	-1	-2.7

Next compounds follow:
SMILES	DUX4 inh	DUX4 inh difference	DUX4 inh control
CCCNC(=O)C[C@@H]1CC[C@H]2[C@@H](COC[C@H](O)CN2C(=O)Nc2ccc3c(c2)OCO3)O1	-2	-4	2.3
C[C@H](CO)N1C[C@H](C)[C@@H](CN(C)Cc2ccc(C(F)(F)F)cc2)Oc2c(NC(=O)c3nc4ccccc4s3)cccc2C1=O	-2	-6	3.6
COc1cccc(NC(=O)N[C@H]2C=C[C@H](CC(=O)NCc3ccncn3)O[C@H]2CO)c1	-5	-1	-3.7
C[C@@H]1CN([C@@H](C)CO)C(=O)CCCn2cc(nn2)CO[C@@H]1CN(C)C(=O)c1ccc(N2CCN(C)CC2)cc1	2	6	-3.8
COC(=O)c1ccc(CN2CC(=O)N3[C@H](CO)[C@@H](c4ccc(-c5ccccc5F)cc4)[C@@H]3C2)cc1	-2	-10	7.6
CCNC(=O)C[C@@H]1CC[C@H]2[C@@H](COC[C@@H](O)CN2Cc2ccncc2)O1	15	2	13
COCC(=O)Nc1ccc2c(c1)OC[C@H](C)N(C(=O)CC1CC1)C[C@H](C)[C@@H](OC)CN(C)C2=O	1	-1	1.8
COCC(=O)N1CC(=O)N2[C@H](CO)[C@H](c3ccc(-c4ccncc4)cc3)[C@@H]2C1	4	-4	8.7
COc1ccc(S(=O)(=O)N(C)C[C@H]2Oc3ccc(NC(=O)CCCCCC(=O)Nc4ccccc4N)cc3C(=O)N([C@@H](C)CO)C[C@@H]2C)cc1	-5	0	-4.9
COc1ccc(NC(=O)Nc2ccc3c(c2)C(=O)N([C@@H](C)CO)C[C@@H](C)[C@@H](CN(C)S(=O)(=O)c2cn(C)cn2)O3)cc1	-2	-2	-0.1
CCCNC(=O)N1[C@@H](CO)[C@H](c2ccccc2)[C@@H]1CNC(=O)c1ccccc1	-1	-1	0.1
CCCNC(=O)N1C[C@H]2[C@@H](c3ccccc31)[C@H](CO)N2C(=O)c1ccncc1	0	-3	3.3

Going on with the list:
SMILES	DUX4 inh	DUX4 inh difference	DUX4 inh control
O=C(NCC1CCCCC1)[C@@H]1[C@@H](CO)[C@@H]2Cn3c(cccc3=O)[C@H]1N2C(=O)c1ccncc1	0	2	-2.4
CN(C)C(=O)c1ccc(-c2ccc([C@@H]3[C@@H](CO)N(C(=O)C4CCCCC4)[C@H]3C#N)cc2)cc1	2	-2	4.1
N#C[C@@H]1[C@@H](c2ccc(C3=CCCC3)cc2)[C@@H](CO)N1C(=O)c1cccc(F)c1	2	-1	3.0
CN(C)CCCNC(=O)C[C@H]1CC[C@@H]2[C@@H](COc3ccc(NC(=O)NC4CCCC4)cc3C(=O)N2C)O1	1	2	-0.8
O=C(C[C@H]1CC[C@H](NC(=O)C2CCC2)[C@@H](CO)O1)NCc1ccncc1	2	1	0.4
C[C@@H]1CN([C@H](C)CO)S(=O)(=O)c2ccc(-c3cccc(C(=O)N(C)C)c3)cc2O[C@H]1CN(C)Cc1ccc2c(c1)OCO2	6	2	4.0
Cc1ccccc1-c1ccc([C@H]2[C@H]3CN(C(=O)Nc4cccc(F)c4)CCCCN3[C@H]2CO)cc1	-5	15	-19
CN(C)C(=O)c1cccc(-c2ccc3c(c2)[C@@H]2[C@@H](CCN2C(=O)C2CCC2)[C@H](CO)N3)c1	?	/	/
COc1ccc(S(=O)(=O)N2CC3(CN(C(=O)CN(C)C)[C@@H](CO)c4c3c3ccc(OC)cc3n4C)C2)cc1	-2	17	-18
Cc1noc(C)c1NC(=O)NCC[C@H]1CC[C@@H](NC(=O)Cc2cccnc2)[C@H](CO)O1	-3	-4	0.7
C[C@@H]1CN([C@@H](C)CO)C(=O)c2cccc(NS(=O)(=O)c3cccs3)c2O[C@@H]1CN(C)Cc1ccc2c(c1)OCO2	-5	-4	-0.9
CC=Cc1ccc2n(c1=O)C[C@@H]1[C@@H](CO)[C@H](C(=O)NCC)[C@H]2N1CC1CCOCC1 (mixture of isomers)	-4	-8	3.7

Further results.
SMILES	DUX4 inh	DUX4 inh difference	DUX4 inh control
CN(C)CC(=O)N1[C@H](C(=O)NC2CCC2)[C@@H](CO)[C@@H]2Cn3c(ccc(-c4cccc(F)c4)c3=O)[C@@H]21	9	8	1.1
CCCC#Cc1ccc([C@@H]2[C@H](CO)N3CCCCN(Cc4cncnc4)C[C@@H]23)cc1	11	-13	24
Cc1ccc(CN2CC(=O)N3[C@@H](CO)[C@H](c4ccc(Br)cc4)[C@@H]3C2)cc1	0	-6	6.6
O=C(C[C@H]1C=C[C@@H](NC(=O)c2ccc3c(c2)OCO3)[C@H](CO)O1)NC1Cc2ccccc2C1	3	3	0.5
C[C@@H](O)C#Cc1ccc([C@H]2[C@H]3CN(S(=O)(=O)Cc4ccccc4)CCCCN3[C@H]2CO)cc1	9	-2	11
COc1ccc(S(=O)(=O)Nc2ccc3c(c2)C(=O)N([C@H](C)CO)C[C@H](C)[C@@H](CN(C)Cc2ccc(C(F)(F)F)cc2)OCCCC[C@@H](C)O3)cc1	2	3	-1.2
C[C@@H]1CN([C@@H](C)CO)C(=O)CCCn2cc(nn2)CO[C@@H]1CN(C)Cc1ccccc1C(F)(F)F	2	5	-3.0
O=C(C1CCOCC1)N1C[C@H]2[C@@H](c3ccccc31)[C@@H](CO)N2C(=O)Cc1ccccc1	0	0	-0.2
C[C@@H]1CCCCO[C@H](CN(C)C(=O)CCC(F)(F)F)[C@H](C)CN([C@H](C)CO)C(=O)c2cc(NC(=O)Cc3ccccc3)ccc2O1	0	0	0.1
CN1C(=O)c2cc(NC(=O)Cc3ccccc3)ccc2OC[C@H]2O[C@@H](CC(=O)O)CC[C@H]21	-3	1	-3.6
COCC#Cc1ccc([C@H]2[C@@H](CO)N3C(=O)CN(C(=O)c4cccnc4)C[C@@H]23)cc1	15	-4	19
CC(C)N(C[C@@H]1[C@@H](c2ccccc2)[C@@H](CO)N1S(C)(=O)=O)C(=O)CN(C)C	0	-2	2.2

Structures shown so far that contain a COOH group (3):
SMILES	DUX4 inh	DUX4 inh difference	DUX4 inh control
C[C@@H]1CN([C@@H](C)CO)S(=O)(=O)c2ccc(C3=CCCC3)cc2O[C@H]1CN(C)Cc1cccc(C(=O)O)c1	4	2	2.5
C[C@@H]1CN([C@H](C)CO)C(=O)CCCn2nncc2CO[C@H]1CN(C)Cc1ccc(C(=O)O)cc1	-4	-1	-2.7
CN1C(=O)c2cc(NC(=O)Cc3ccccc3)ccc2OC[C@H]2O[C@@H](CC(=O)O)CC[C@H]21	-3	1	-3.6

More records follow.
SMILES	DUX4 inh	DUX4 inh difference	DUX4 inh control
CCc1cnc(N2[C@H](CO)[C@H](c3ccccc3-c3ccccc3C)[C@@H]2C#N)s1	?	/	/
C[C@H](CO)N1C[C@H](C)[C@@H](CN(C)Cc2cccnc2)Oc2ncc(-c3ccc(C#N)cc3)cc2C1=O	2	2	-0.3
O=C(NCCN1CCCCC1)[C@@H]1N[C@@H]2c3ccc(-c4ccccc4)c(=O)n3C[C@@H]2[C@H]1CO	4	8	-3.1
CCCNC(=O)C[C@H]1CC[C@H]2[C@@H](COC[C@H](O)CN2Cc2ccc(Cl)c(Cl)c2)O1	-8	-2	-6.2
C[C@@H]1CN([C@H](C)CO)C(=O)CCCn2cc(nn2)CO[C@H]1CN(C)Cc1ccccc1C(F)(F)F	-4	-1	-3.2
CNC(=O)C[C@@H]1CC[C@@H]2[C@H](COc3ccc(NC(=O)Nc4ccccc4F)cc3C(=O)N2C)O1	-2	1	-2.7
CCCNC(=O)N1C[C@H](O)COC[C@H]2O[C@H](CC(=O)N3CCN(C)CC3)CC[C@@H]21	2	-10	11
C[C@H](CO)N1C[C@H](C)[C@H](CN(C)C(=O)c2cnccn2)Oc2ncc(-c3cccc(F)c3)cc2C1=O	2	2	-0.3
COc1ccc(-c2ccc3n(c2=O)C[C@@H]2[C@@H](CO)[C@H](C(=O)N(C)C)N(CC4CCOCC4)[C@H]32)cc1	1	0	0.8
O=C(NC[C@H]1N[C@H](CO)[C@@H]1c1ccc(-c2cncnc2)cc1)C1CC1	-1	-3	1.6
O=C(c1ccncc1)N1CC[C@H]2[C@H](CO)Nc3ccc(Br)cc3[C@H]21	21	11	11
CNC[C@@H]1OCc2cn(nn2)CCCC(=O)N([C@H](C)CO)C[C@@H]1C	1	1	-0.6

Record cards, from the list above. Values in the order: DUX4 inh, DUX4 inh difference, DUX4 inh control
`O=C(NCCN1CCCCC1)[C@@H]1N[C@@H]2c3ccc(-c4ccccc4)c(=O)n3C[C@@H]2[C@H]1CO` is listed as 4, 8, -3.1
`CNC[C@@H]1OCc2cn(nn2)CCCC(=O)N([C@H](C)CO)C[C@@H]1C` is listed as 1, 1, -0.6

The main list resumes, repeating the 2 entries before the break.
SMILES	DUX4 inh	DUX4 inh difference	DUX4 inh control
O=C(c1ccncc1)N1CC[C@H]2[C@H](CO)Nc3ccc(Br)cc3[C@H]21	21	11	11
CNC[C@@H]1OCc2cn(nn2)CCCC(=O)N([C@H](C)CO)C[C@@H]1C	1	1	-0.6
CC=Cc1ccc2n(c1=O)C[C@H]1[C@H](CO)[C@@H](C(=O)NCC)[C@@H]2N1Cc1nccs1 (mixture of isomers)	3	-10	13
CC(C)NC(=O)N1CCCCN2[C@H](CO)[C@@H](c3ccc(C#Cc4ccccc4)cc3)[C@H]2C1	?	/	/
CC(C)NC(=O)N(C)C[C@@H]1OCc2cn(nn2)CCCC(=O)N([C@H](C)CO)C[C@H]1C	-3	1	-3.8
O=C(C[C@@H]1CC[C@H]2[C@@H](COC[C@@H](O)CN2C(=O)c2ccc3c(c2)OCO3)O1)NC1Cc2ccccc2C1	-3	-4	0.3
C[C@H](CO)N1C[C@H](C)[C@@H](CN(C)C)OCc2cnnn2CCCC1=O	-1	1	-1.3
O=C(C[C@@H]1CC[C@H]2[C@@H](COC[C@@H](O)CN2Cc2ccccc2F)O1)N[C@H]1CCN(Cc2ccccc2)C1	?	/	/
CC(=O)N1[C@@H]2c3ccc(-c4ccccc4F)c(=O)n3C[C@H]1[C@H](CO)[C@H]2C(=O)NC1CCC1	11	11	-0.6
COc1ccccc1CN(C)C[C@@H]1OCc2cn(nn2)CCCC(=O)N([C@H](C)CO)C[C@H]1C	0	1	-0.3
COc1cccc(NC(=O)N(C)C[C@H]2OCc3ccccc3-c3ccccc3C(=O)N([C@@H](C)CO)C[C@@H]2C)c1	2	-4	6.3
CCC(=O)N1[C@H](CO)[C@@H](c2ccccc2)C12CN(C(=O)CN1CCOCC1)C2	3	1	2.1
COc1cccc(C#Cc2ccc3c(c2)O[C@H](CN(C)C(=O)CN2CCOCC2)[C@H](C)CN([C@H](C)CO)S3(=O)=O)c1	4	5	-0.3
CN(C)C(=O)c1ccc(-c2ccc([C@@H]3[C@@H](CO)N4C(=O)CN(C(=O)CC5CC5)C[C@@H]34)cc2)cc1	16	4	12

Next part.
SMILES	DUX4 inh	DUX4 inh difference	DUX4 inh control
COc1ccccc1-c1ccc2n(c1=O)C[C@H]1[C@H](CO)[C@@H](C(=O)NCc3ccccn3)[C@@H]2N1C	-2	-7	5.5
OC[C@@H]1[C@H](c2ccc(C3=CCCC3)cc2)[C@H]2CN(Cc3cncnc3)CCCCN12	14	10	4.1
CCCNC(=O)C[C@@H]1CC[C@@H]2[C@H](COC[C@@H](O)CN2C(=O)C2CCOCC2)O1	6	8	-1.8
CCCN1[C@@H]2c3ccc(-c4ccccc4F)c(=O)n3C[C@H]1[C@H](CO)[C@H]2C(=O)NCCOC	5	-4	9.4
CC(C)C#Cc1ccc([C@@H]2[C@@H](CO)N3C(=O)CN(C(=O)C4CCCCC4)C[C@H]23)cc1	-1	-1	0.4
Cc1ccc(NC(=O)Nc2ccc3c(c2)C(=O)N(C)[C@H]2CC[C@H](CC(=O)O)O[C@@H]2CO3)cc1	0	-5	4.4
C[C@H](CO)N1C[C@H](C)[C@@H](CN(C)CC2CCCCC2)OCc2cn(nn2)CCCC1=O	9	8	0.6
